gsp agonist – qHTS for Agonist of gsp, the Etiologic Mutation Responsible for Fibrous Dysplasia/McCune-Albright Syndrome: qHTS | gsp mutant cells, cAMP HTRF, 30 min; control for the full effect not named in the record | Potency, µM (doses to about 76.9 µM), for the others: at the highest dose activation (cAMP increase), hits mostly activators | 340,000 tested, 0.13% active | AID 624287, 2012; active = well fitted activation curve with a large enough effect; inconclusive = small, poorly fitted or top-dose-only effect, or another doubt; inactive = no such curve, though single readings can be large or run the other way; cell line not stated here;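 further: phosphodiesterase inhibitor Ro 20-1724 added with compounds to block cAMP breakdown; potency means the concentration at half of the fitted maximal effect; nearly all actives have a fitted effect of over 60% in size; about a fifth of the inactives were tested at one dose only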
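Cells in DMEM/10% FBS with G418 were pretreated with compounds in DMSO plus […] (300 uM stock) for 30 min at 37C. cAMP was measured by HTRF (cAMP-d2 plus anti-cAMP antibody-K) after 30 min at room temperature.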
D2 potentiator – Beta-Arrestin HTS for Positive Allosteric Modulators of the Human D2 Dopamine Receptor: Potentiators; D(2) dopamine receptor (Homo sapiens), P14416; DiscoveRx D2 beta-arrestin cells, luminescence, 90 min; 100% = 57 uM dopamine signal; potentiation, % (concentration not given with the values); 360,000 tested, 0.23% active; AID 624464, 2012; active = potentiation of 50% or more; inconclusive = 30% to 50%; inactive = 30% or less;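 further: compound concentration not given in the record; tested on top of an EC20 dose of dopamine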
Target sequence (P14416 whole entry, looked up): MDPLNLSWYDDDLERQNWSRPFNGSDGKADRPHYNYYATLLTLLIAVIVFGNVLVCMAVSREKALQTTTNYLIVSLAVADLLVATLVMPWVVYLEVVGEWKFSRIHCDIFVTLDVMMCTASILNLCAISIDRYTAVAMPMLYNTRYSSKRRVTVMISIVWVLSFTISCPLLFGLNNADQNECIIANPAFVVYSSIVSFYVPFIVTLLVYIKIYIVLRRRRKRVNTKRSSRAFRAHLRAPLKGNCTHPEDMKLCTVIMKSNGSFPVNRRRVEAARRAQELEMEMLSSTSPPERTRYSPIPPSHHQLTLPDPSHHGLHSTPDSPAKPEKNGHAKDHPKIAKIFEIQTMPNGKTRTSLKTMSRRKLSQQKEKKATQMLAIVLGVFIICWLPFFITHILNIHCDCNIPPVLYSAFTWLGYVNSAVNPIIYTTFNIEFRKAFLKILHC
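PathHunter beta-arrestin assay in DiscoveRx D2 cells. Compounds were added with an EC20 of dopamine (50 nM final) for 90 min at 37 deg C. Luminescence was read 1 h after detection reagent, with 57 uM dopamine as the EC100 control.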
D2 ag – Beta-Arrestin HTS for Positive Allosteric Modulators of the Human D2 Dopamine Receptor: Agonists; D(2) dopamine receptor (Homo sapiens), P14416; DiscoveRx PathHunter D2 beta-arrestin, luminescence, 90 min; 100% = 57 uM dopamine signal; activation, % (test concentration not listed); 360,000 tested, 0.084% active; AID 624465, 2012; in the data active = activation above about 40%; inconclusive = about 15% to 40%; inactive = below about 15%; further: compound concentration not given in the record; the text of the record calls up to 30% inactive
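Agonist mode: compounds alone added to overnight-plated D2 PathHunter cells for 90 min at 37 C, with 57 uM final dopamine (EC100) defining full response. Beta-arrestin recruitment detected by chemiluminescent reagent, read after 1 h at ambient temperature.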
Six1-Eya2 blk – qHTS Assay for Inhibitors of the Six1/Eya2 Interaction; activity change, % (test concentration not listed); AID 651725, 2012; 360,000 tested, 0.56% active; Homeobox protein SIX1 (Homo sapiens) + Protein phosphatase EYA2 (Homo sapiens), …; AlphaScreen GST-Six1/His-Eya2 binding, biochemical; hits give low values; control for the full effect not named in the record; in the data active = activity change below about -65%; inconclusive = about -30% to -65%; inactive = above about -30%; further: on the % scale 0 is the no-effect control and ±100 the full control effect; compound concentration not given in the record
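Compounds are tested against tagged Six1 and Eya2 proteins bridged by glutathione donor and nickel acceptor beads; after a one-hour incubation at 37 °C without light, AlphaScreen emission is recorded.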
gsp antagonist – qHTS for Antagonists of gsp, the Etiologic Mutation Responsible for Fibrous Dysplasia/McCune-Albright Syndrome: qHTS. gsp-mutant cells, cAMP HTRF, 30 min; control for the full effect not named in the record. Potency, µM (series often up to 76.9 µM), for the others: at the top dose activity change, negative = inhibition, usual class: inhibitors. 340,000 tested, 0.4% active. AID 624288, 2012; active = falling curve of any shape with a large fitted effect; inconclusive = falling curve, mostly with a smaller effect; inactive = flat or rising curve; cell line not stated here;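 further: intracellular cAMP measured with PDE inhibitor Ro 20-1724 present during compound exposure; potency means the concentration at half of the fitted maximal effect; on the % scale 0 is the no-effect control and ±100 the full control effect; nearly all actives have a fitted effect of over 65% in size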
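Measurement of cellular cAMP by homogeneous time-resolved fluorescence following a 30 min compound exposure at 37C. The PDE inhibitor […] was present throughout; the assay buffer was DPBS with 0.05% BSA and 0.005% Tween 20.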
CtBP-E1A blk – qHTS Assay for Inhibitors of the CtBP/E1A Interaction. CtBP / adenovirus E1A interaction (AlphaScreen). activity change, % (test concentration not listed). 340,000 tested, 0.49% active. AlphaScreen GST-E1A/His-CtBP binding, 1536-well; hits give low values; control for the full effect not named in the record; in the data active means activity change below about -65%; inconclusive means about -30% to -65%; inactive means above about -30%; further: on the % scale 0 is the no-effect control and ±100 the full control effect; compound concentration not given in the record
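Homogeneous bead-based format: GST-tagged E1A captured on glutathione donor beads, His-tagged CtBP on nickel acceptor beads; compounds precede bead addition by 2 h at 37 °C.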
An asterisk follows results filed as active; ? = inconclusive; / = not tested or not shown; [ ] = another dose, or the depositor's remark.

Sample of the layout:
SMILES	gsp agonist	D2 potentiator	D2 ag	Six1-Eya2 blk	gsp antagonist	CtBP-E1A blk
CCc1ccccc1N1C(=O)c2ccccc2S1(=O)=O	-13%	-7	1.7	7	-1%	4
COc1ccc(S(=O)(=O)N2CCCC2)cc1OC	-15%	-5	-2.4	-13	0%	-23
COc1ccccc1NC(=O)N1CCN(c2ccc(F)cc2)CC1	-28%	-1	-3.4	-4	13%	3
CCOc1ccc2[nH]c(=O)c(CN(CC3COCCO3)C(=O)c3ccc(C)cc3)cc2c1 (configuration not stated)	-5%	1	-5.1	3	-7%	1

Main list, from the start:
SMILES	gsp agonist	D2 potentiator	D2 ag	Six1-Eya2 blk	gsp antagonist	CtBP-E1A blk
CCc1ccccc1N1C(=O)c2ccccc2S1(=O)=O	-13%	-7	1.7	7	-1%	4
COc1ccc(S(=O)(=O)N2CCCC2)cc1OC	-15%	-5	-2.4	-13	0%	-23
COc1ccccc1NC(=O)N1CCN(c2ccc(F)cc2)CC1	-28%	-1	-3.4	-4	13%	3
CCOc1ccc2[nH]c(=O)c(CN(CC3COCCO3)C(=O)c3ccc(C)cc3)cc2c1 (configuration not stated)	-5%	1	-5.1	3	-7%	1
O=C(NC1CCCC1)c1cccc(S(=O)(=O)Nc2ccccc2F)c1	6%	-1	0.2	12	-7%	-6
CCCCOC(=O)CSc1nnc(-c2cc(OC)c(OC)c(OC)c2)o1	1%	8	2.2	6	-9%	1
C[C@H]1CCC2[C@](C)(CO)[C@@H](O)CC[C@]2(C)[C@@]12CCC(CO)(CCO)O2 (some centres not stated)	-39%	-3	-3.6	12	5%	4
CCCNC(=O)Cc1ccsc1	-1%	-3	-0.7	5	9%	2
Cc1nc(N)c(C#N)c(-c2cccnc2)c1C	2%	-5	-0.3	27	15%	39
Cc1ccc(C(=O)NC2CCCC2)s1	-6%	-4	-1.9	6	9%	10
CC(C)(C)c1ccc(/C=C/C(=O)Nc2cccnc2)cc1	-2%[15.4 µM]	-1	1.3	3	-14%	-3
O=C(Cn1c(C(=O)NCc2ccco2)cc2sccc21)c1ccccc1	-38%[inhibitor]	1	0.2	-23	-8%	-11
CCO[C@H]1OC(C(=O)N2CCN(C)CC2)=C[C@@H](C2CC2)[C@@H]1CCCO	/	-11	-2.7	-4	4%	-18
COc1ccc(CCNC(=O)CSc2nc3c(c(=O)n(C)c(=O)n3C)n2C)cc1OC	-4%	-11	-1.7	4	7%	0
N#Cc1ccccc1NC(=O)C(=O)NCCCN1CCCC1=O	8%	-7	-6.0	6	3%	-1
O=S(=O)(Nc1ccc(Br)cn1)c1cccs1	37%	-3	1.2	2	-2%	7
C=CCn1c(SCC(=O)c2ccc(O)c(O)c2)nnc1-c1cccc(Cl)c1	/	-3	-1.3	-7	-12%	-16
CN1C(=S)N(c2ccccc2)C(=O)/C1=C/c1cccs1	3%	-6	-3.0	-1	3%	7
Cc1cc(C)cc(N(CC(=O)NCc2ccc(F)cc2)C(=O)c2snc(C(N)=O)c2N)c1	9%[15.4 µM]	-2	2.6	0	-7%	0
COc1cc(C)nc(N2CCCC(C(=O)Nc3ccccc3Br)C2)n1 (configuration not stated)	?	1	-4.4	4	3%	14
Cc1cc(Oc2ccccc2F)nc(NCc2ccccc2)n1	6%[15.4 µM]	-9	-3.0	5	-7%	0
CCCn1c(CN2CCCCC2CC)nc2c1c(=O)n(C)c(=O)n2C (configuration not stated)	-30%[inhibitor]	-1	1.2	0	4%	-1
CCC(CC)c1nnc(NC(=O)CN2C(=O)c3ccccc3C2=O)s1	20%	-4	-0.9	-2	-9%	3
CNc1ccccc(C(=O)/C=C/c2ccccc2OC)c1=O	-47%[inhibitor]	-1	0.8	-6	-10%	7
O=C(Nc1cccc(S(=O)(=O)N2CCCCCC2)c1)C1CCC1	-1%	-7	3.2	-2	9%	3
COc1cc(/C=C\C(=O)NCc2ccc3[nH]c(C)cc3c2)cc(OC)c1OC	27%	-5	2.7	-19	1%	-20
CC(=O)NS(=O)(=O)c1ccc(NC(=O)c2ccccn2)cc1	0%	1	-0.2	-11	1%	-11
CC(C)(C)NC(=O)CN(C(=O)c1snc(C(=O)NC2CCCCC2)c1N)c1ccc(F)cc1	-14%	-6	-1.8	5	-11%	-12
Cc1cccc(NC(=O)Nc2nnc(N3CCCCC3C)s2)c1C (configuration not stated)	14%	-7	-1.6	1	6%	4
Clc1cccc(OCCn2ccnc2)c1	-16%[15.4 µM]	-2	6.3	-6	-16%	4
Cc1cccc(N2CCN(C(=O)c3ccc(NC(=O)C4CCCO4)cc3)CC2C)c1 (configuration not stated)	-15%	-1	-0.1	-1	0%	1
CCNC(=O)CN(c1ccc(CC)cc1)S(C)(=O)=O	11%	-1	-0.7	7	10%	11
CC(C)NC(=S)N(C)C1(c2ccccc2Cl)CCCCC1=O (configuration not stated)	-3%	-2	-0.9	7	3%	4
CCCc1nnc(NC(=O)CCCN2C(=O)c3ccccc3C2=O)s1	3%	-9	-1.8	11	4%	1
Cc1ccccc1-n1c(C)nnc1SCC(=O)N1CCc2ccccc2C1	-9%	-8	-0.8	5	-3%	-9
CCN(CC)C(=O)c1cccc(-c2ccc(OC)cc2)c1	0%	-12	-1.3	6	15%	11
O=C(c1ccc(=O)n(Cc2ccc(Cl)c(Cl)c2)c1)N1CCOCC1	5%	-13	-1.9	7	10%	12
CCOC(=O)CNC(=O)N1CCc2ccc(NC(=O)c3ccccc3Cl)cc2C1	2%	-2	-4.9	2	0%	8
O=[N+]([O-])c1cccc(-c2ncc3ccccn23)c1	26%[15.4 µM]	20	0.3	0	-63%	-13
O=C(O)Cn1nc(-c2ccccc2)c2ccccc2c1=O	4%	-10	-1.1	12	2%	8
CCOc1nc(OCC)nc(-n2cc(-c3ccccc3)nn2)n1	25%	26	-0.9	2	6%	0
O=C(COC(=O)c1cc([N+](=O)[O-])ccc1N1CCCC1)Nc1ccccc1OC(F)F	10%[15.4 µM]	-20	-3.4	-19	-13%	-3
COc1ccc(CCNC(=O)C2CCN(S(=O)(=O)c3cccc4nsnc34)CC2)cc1OC	15%	?	-1.9	1	-20%	2
CCOC(=O)CCCNC(=O)CCCNC(=O)C(c1ccccc1)c1ccccc1	5%	-1	0.3	4	3%	7
COc1ccc([C@H]2CC(=O)C=C(c3ccc(-c4ccccc4)c(F)c3)C2)cc1OC	/	-5	-1.8	0	-1%	5
[O-][n+]1ccccc1SCc1ccccc1	/	-14	-1.8	0	5%	6
Cc1ccc2nc(-c3ccccc3)c(CN3CCSCC3)n2c1	?	-1	-2.3	-9	-14%	-9
O=C(NC(=S)Nc1ccccc1)c1cc([N+](=O)[O-])ccc1N1CCOCC1	1%	-10	-3.3	-5	10%	1
CCn1cc(C(=O)N(C)c2ccc(OC)cc2OC)c2cc(OC)c(OC)cc2c1=O	2%	-4	-3.6	-3	8%	/
CN(CCC#N)C(=O)c1cc2c(s1)-c1ccccc1SC2	1%[15.4 µM]	-6	-2.6	-2	1%	-1
The list continues:
SMILES	gsp agonist	D2 potentiator	D2 ag	Six1-Eya2 blk	gsp antagonist	CtBP-E1A blk
CCOC(=O)c1csc(NC(=O)C(C)(C)C)n1	-19%	-5	-5.6	-7	4%	-1
N#C/C(=C(\O)CCl)c1nnc2n1CCCCC2	10%	-11	-1.4	5	8%	0
COc1ccc(/C=N/NC(=O)c2cccnc2)cc1	?	-3	-5.7	-2	0%	4
COc1ccc(NC(=O)Cn2nnc(C(=O)NCc3ccc4c(c3)OCO4)c2N)cc1	21%[15.4 µM]	-8	-5.4	5	12%	-13
CCc1ccc(-c2cc(C)no2)cc1S(=O)(=O)N1CC(=O)Nc2ccccc21	-22%	7	5.8	0	-10%	0
Cc1c(C(=O)O)oc2ccc(S(=O)(=O)NCCC3=CCCCC3)cc12	-15%	-2	4.7	0	-23%	-3
O=C(CN(c1ccccc1)S(=O)(=O)c1ccccc1)NCCSCc1ccco1	4%	-17	1.5	-9	-7%	-1
Cc1sc(NC(=O)CCCC(=O)O)c(C(N)=O)c1-c1ccccc1	0%	-3	-3.6	13	-17%	2
CNC(=O)c1sc(Nc2cc(C)ccc2C)nc1C	-3%[15.4 µM]	-7	-3.7	5	-10%	-24
Cn1nc(/C=C/c2ccccc2)ccc1=O	16%[15.4 µM]	-6	0.7	1	-6%	/
Cc1ccccc1-c1n[nH]c(=S)n1/N=C/C=C/c1ccco1	-19%	-8	-5.2	-27	-1%	6
CCc1noc(C)c1C(=O)OCC(=O)Nc1ccc(F)cc1Cl	?	-3	-6.2	-10	9%	/
COCc1cc(CN(C)C(=O)c2oc3c(F)cccc3c2C)[nH]n1	-40%[inhibitor]	-4	0.1	0	-7%	1
CCOC(=O)c1sc(=N)n(-c2ccc(OC)cc2)c1C	-3%	-9	5.1	4	3%	-5
CS(=O)(=O)N(CC(=O)NC1CCCCC1)c1cccc(F)c1	-65%[inhibitor]	-4	-3.1	7	12%	/
CCOCCCNC(=O)c1ccccc1Br	?	-4	-0.8	4	17%	0
CN(C)c1ccc(C(=S)N2CCCCC2)cc1Br	-16%[15.4 µM]	-4	-3.5	-4	-10%	-13
CC(CC(=O)N1CCN(S(=O)(=O)c2ccccc2)CC1)n1cncn1 (configuration not stated)	0%	-6	-5.8	3	13%	0
O=C(CSc1nnc(Cc2cc(=O)[nH]c(=O)[nH]2)n1-c1ccccc1)NCC1CCCO1 (configuration not stated)	?	0	0.9	1	-1%	3
CCOC(=O)C1=C(COC(=O)CNS(=O)(=O)c2ccc(C)c(C)c2)NC(=O)NC1C (configuration not stated)	33%	6	-0.5	2	/	5
Fc1ccc(NC(=S)SCc2ccc3c(c2)OCO3)cc1F	25%	-14	-6.0	9	/	0
COCCOC(=O)C1=C(C)N(Cc2ccccc2)C(=O)NC1c1ccc(OC)cc1 (configuration not stated)	14%	-4	-0.9	4	4%	7
COc1ccc(-c2cn(-c3ccc(C)c(Cl)c3)c(=S)[nH]2)cc1OC	11%	-4	-3.0	-8	-16%	0
CCOC(=O)c1n[nH]n2c1nc(=O)c1ccccc12	-1%[15.4 µM]	-2	-3.4	9	-7%	2
N#Cc1cc(Br)ccc1N=C1CCCN1c1ccccc1	5%	-3	3.7	7	-26%	14
COC(=O)c1cc(=O)c2c([N+](=O)[O-])ccc(OC)c2o1	-9%[15.4 µM]	-1	-5.8	?	10%	4

Bioassay records as filed in PubChem.
